# High-throughput results deposited in PubChem BioAssay by National Center for Advancing Translational Sciences (NCATS).
# miR-21 reporter = raises the signal of a miR-21 reporter | HeLa miR-21 FLuc reporter, luciferase, 48 h | Potency, µM (top dose mostly 38.3 µM), for inactives: at the highest dose reporter change, positive = more light | 340,000 tested, under 10 active | AID 2288; active = well fitted rising curve with a large enough effect; inconclusive = small, poorly fitted or top-dose-only effect; inactive = no such curve, though single readings can be large or run the other way;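 also: % of control where 0% means no effect; miR-21 action dims this reporter so a rising signal means less miR-21 action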
#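 Luminescence from a firefly luciferase reporter carrying a miR-21 binding site downstream, stably expressed under a CMV promoter in HeLa cells that make miR-21 endogenously, reports miRNA modulation after 48 h compound exposure up to approximately 40uM final.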
# Rango complex inh = inhibitors of Rango-importin beta complex formation; Q14974; Rango CFP/YFP FRET sensor + importin beta, 45 min; Potency, µM (top dose mostly 92.2 µM), for inactives: at the highest dose inhibition of complex formation; 340,000 tested, 0.031% active; active = rising FRET ratio curve, often small or poorly fitted; inconclusive = mostly compound fluorescence or quenching in the first reads; inactive = flat curves in all reads;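 also: potency is read from the fitted curve at half-maximal effect; 0% = DMSO wells and 100% = buffer wells lacking importin beta; nearly all actives have a fitted effect of over 15% in size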
# Target sequence (Q14974 whole entry, looked up): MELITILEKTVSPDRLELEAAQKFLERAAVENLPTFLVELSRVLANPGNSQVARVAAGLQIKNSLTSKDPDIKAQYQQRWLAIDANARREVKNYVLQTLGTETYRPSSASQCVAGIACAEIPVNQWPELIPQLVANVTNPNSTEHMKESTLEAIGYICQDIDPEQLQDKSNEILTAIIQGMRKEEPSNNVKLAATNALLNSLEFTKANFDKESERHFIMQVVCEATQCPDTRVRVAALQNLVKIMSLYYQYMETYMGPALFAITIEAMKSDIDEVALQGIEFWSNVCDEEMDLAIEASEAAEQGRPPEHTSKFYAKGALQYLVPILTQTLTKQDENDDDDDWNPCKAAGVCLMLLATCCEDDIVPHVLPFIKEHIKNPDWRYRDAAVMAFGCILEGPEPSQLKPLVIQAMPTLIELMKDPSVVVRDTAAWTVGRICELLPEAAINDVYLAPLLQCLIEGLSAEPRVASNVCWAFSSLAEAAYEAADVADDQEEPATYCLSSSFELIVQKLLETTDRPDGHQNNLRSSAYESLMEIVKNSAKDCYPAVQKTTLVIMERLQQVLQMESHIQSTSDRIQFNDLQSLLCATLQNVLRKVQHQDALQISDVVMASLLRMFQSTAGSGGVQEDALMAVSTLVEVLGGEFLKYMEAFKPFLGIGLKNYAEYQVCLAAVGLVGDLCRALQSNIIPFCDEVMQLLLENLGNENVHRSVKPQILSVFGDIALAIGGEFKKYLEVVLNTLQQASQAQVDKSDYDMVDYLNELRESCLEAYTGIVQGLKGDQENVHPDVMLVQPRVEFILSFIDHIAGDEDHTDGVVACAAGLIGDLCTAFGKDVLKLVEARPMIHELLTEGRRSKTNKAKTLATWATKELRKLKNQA
#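 FRET biosensor (snurportin 1 IBB flanked by EYFP and cerulean), 50 nM, with compound 5 min, then 0.125 microM importin beta in PBS, 1 mM DTT, 0.02% Tween-20, 0.1% BSA. CFP/YFP ratio read after 45 min at room temperature; pre-read flags interference.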
# Rango dissoc inh = inhibitors of RanGTP-induced Rango-importin beta complex dissociation. Potency, µM (series often up to 46.1 µM), for inactives: at the highest dose activity change, negative = inhibition. Biochemical FRET Rango-importin beta, RanGTP-induced dissociation. 340,000 tested, 0.071% active. AID 540253. O95149+P62826; active means falling FRET ratio curve, often poorly fitted, with flat reads before Ran was added; inconclusive means other falling curves, or compound fluorescence or quenching; inactive means flat or rising ratio curve;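 also: potency is read from the fitted curve at half-maximal effect; % of control where 0% means no effect; nearly all actives have a fitted effect of over 45% in size; -100% = wells without RanGTP and RCC1; the record marks most hits as doubtful in a second field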
#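 Two FRET readings bracket the reaction: one 5 min after compound meets Rango–importin beta, another 45 min after RanGTP-RCC1 (0.6 uM Ran, 0.2 uM RCC1, 2 mM GTP) is added. Only the second defines inhibition.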
# GLA inh pH 4.5 = blocks human alpha-galactosidase A at pH 4.5. P06280. purified enzyme, 4-MU-alpha-Gal fluorescence, pH 4.5. activity change, negative = inhibition, % at 105 µM. 230,000 tested, under 10 active; inconclusive = small, poorly fitted or top-dose-only inhibition, or a rising curve; inactive = flat fitted curve, though single readings scatter; no compound was filed as active;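 also: 0% = full activity with enzyme and -100% = basal without enzyme; dose as in the result columns while the protocol names 77 µM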
# Active calls of the source: *; ? = inconclusive; · = not tested or not shown. The list is partial (hit frequency here may not be typical).
smiles,miR-21 reporter,Rango complex inh,Rango dissoc inh,GLA inh pH 4.5
CCCN(CCC)S(=O)(=O)c1ccc(C(=O)Nc2nnc(CSC)o2)cc1,25%,0.5%,-2%,2
CCCCOc1ccc(C(=O)Nc2cccc(C)n2)cc1,-12%,0.3%,6%,5
CC(/C=C1\SC(=S)N(NC(=O)c2ccc(O)cc2)C1=O)=C\c1ccccc1,0%,0.9%,?,3
CC(=O)N1CCOc2ccc(S(=O)(=O)NCc3ccccc3Cl)cc21,0%,1.3%,-9%,·
COc1ccc(-c2csc(NC(=S)NC(=O)/C=C/c3ccccc3)n2)cc1Br,-6%,-2.7%,-7%,0
O=C(NCCc1ccccc1F)[C@@H]1CSC2c3ccccc3C(=O)N21 (stereo not given in full),-6%,3.8%,-3%,6
CC1(C)CC(=O)c2cc(C(=O)N3CCN(CCO)CC3)c(=O)n(-c3ccc(Cl)cc3)c2C1,-3%,-1.6%,24%,11
Cc1c(C(=O)CN2CCN(c3ccccc3)CC2)c2ccccc2n1C,-23%,0.7%,11%,·
O=C(O)COCCN1CCN([C@H](c2ccccc2)c2ccc(Cl)cc2)CC1,-2%,8.1%,-8%,2
COCCNC(C(=O)Nc1ccc([N+](=O)[O-])cc1Br)c1ccccc1 (stereo not given),-2%,-1.9%,-1%,9
CCOc1nc(OCC)c2cnn(C)c2n1,-1%,-4.6%,17%,-12
CN1c2ccsc2C(O)=C(C(=S)Nc2ccccc2)S1(=O)=O,1%,?,-14%,0
COc1cc(C2NC(=O)NC(C)=C2C(=O)OCC2CCCO2)cc(OC)c1OC (stereo not given),0%,-2.1%,19%,3
O=C(Nc1cccc(O)c1)C1CCCN1C(=O)OCc1ccccc1 (stereo not given),-1%,1.4%,-3%,-1
Cc1cccc(OCCC(=O)Nc2ccc(F)c(F)c2)c1,-10%,2.3%,1%,?
CCC(=O)N1CCN=C1SCc1ccccc1,-10%,2.7%,35%,-7
CCn1c(=O)cc(SCC(=O)N2CCN(c3ccccn3)CC2)c2ccccc21,4%,-0.5%,7%,-2
COc1ccc(-c2ccc(N)cn2)cn1,·,0.8%,-7%,·
CC(=O)Nc1c2c(nn1-c1ccccc1C)CS(=O)C2 (stereo not given),-1%,?,-19%,·
C=CCn1c(SCc2ccc(C(=O)Nc3ccccc3)cc2)nnc1-c1ccccc1,-12%,-0.2%,0%,-22
CN1C(=O)N(C)c2cccc3cccc1c23,-5%,-4.6%,13%,·
NC(=O)NCC(=O)N1CCN(S(=O)(=O)c2ccc(Cl)s2)CC1,·,1.7%,0%,·
O=C(COc1ccc(Cl)cc1)NCc1nnc(SCC(=O)Nc2ccc(F)cc2F)o1,2%,7.1%,-1%,1
COCCNC(=O)c1cc2c(=O)[nH]c3ccccc3c2s1,-13%,-1.7%,16%,·
O=C(NCC1CCCO1)c1cccc(N2C(=O)C3C4C=CC(C4)C3C2=O)c1 (stereo not given),0%,-1.2%,-2%,-3
Cc1ccc(/C(O)=C2\C(=O)C(=O)N(Cc3cccnc3)C2c2ccccc2[N+](=O)[O-])cc1 (stereo not given),-42%,-2.6%,0%,-4
Cc1ccc(C(=O)CC(=O)c2ccc(C)cc2O)cc1,-29%,7.2%,9%,·
Cc1ccc(/C=C/c2nnc(-c3cccc(C)c3)o2)cc1,-17%,3.5%,4%,-6
O=C(COC(=O)/C=C/c1nc2ccccc2s1)Nc1ccccc1Oc1ccccc1,-2%,2.8%,-3%,-5
O=C(NC(=S)NNS(=O)(=O)c1ccccc1)c1ccc([N+](=O)[O-])cc1,-5%,2.5%,2%,-1

# 4 neighbouring compounds from above, for reference:
smiles,miR-21 reporter,Rango complex inh,Rango dissoc inh,GLA inh pH 4.5
CCCCOc1ccc(C(=O)Nc2cccc(C)n2)cc1,-12%,0.3%,6%,5
CC(/C=C1\SC(=S)N(NC(=O)c2ccc(O)cc2)C1=O)=C\c1ccccc1,0%,0.9%,?,3
CC(=O)N1CCOc2ccc(S(=O)(=O)NCc3ccccc3Cl)cc21,0%,1.3%,-9%,·
COc1ccc(-c2csc(NC(=S)NC(=O)/C=C/c3ccccc3)n2)cc1Br,-6%,-2.7%,-7%,0

# (list continues)
smiles,miR-21 reporter,Rango complex inh,Rango dissoc inh,GLA inh pH 4.5
CN(C)/C=C(\C#N)C(=O)N/N=C/c1ccccc1,-47%,-0.4%,9%,-13
O=C(Nc1ccc(S(=O)(=O)Nc2ncccn2)cc1)c1ccc2ncsc2c1,-17%,?,-18%,1
O=C(Nc1ccc(N2CCN(C(=O)c3ccc(Cl)cc3)CC2)cc1)c1ccc2c(c1)OCCO2,17%,-1.0%,-1%,-7
CCOC(=O)c1cnn(-c2ccccc2)c1-c1ccncc1,8%,0.9%,-1%,·
CCc1ccc(NC(=O)CC2C(=O)N(c3ccc(C)cc3)C(=O)N2CCc2ccncc2)cc1 (stereo not given),?,-0.7%,-9%,-13
Cc1ccccc1-n1c(C)nnc1SCC(=O)N(C)C1CCS(=O)(=O)C1 (stereo not given),-1%,-4.1%,1%,5
O=C(CCc1ccc(O)cc1)c1c(O)cc(O)cc1O[C@@H]1O[C@H](CO)[C@@H](O)[C@H](O)[C@H]1O,-2%,-2.6%,23%,-10
CCC(=O)c1ccccc1OCCSc1nc(C)cc(=O)[nH]1,-12%,-0.9%,-16%,-7
Cc1cc(C)cc(OC(=O)N2CCOCC2)c1,-1%,0.2%,6%,-4
Cc1ccc(C(=O)N2CCCC(N3CCN(c4ccccc4F)CC3)C2)s1 (stereo not given),0%,3.0%,1%,·
O=C(Cc1ccccc1)Nc1ncccn1,·,-0.1%,-5%,·
Cc1ccc2cc(CNC(C)(C)C)c(=O)[nH]c2c1,-3%,-3.9%,-14%,-1
COCCn1c(SCC(=O)Nc2cccnc2Cl)nc2cc(Cl)ccc2c1=O,·,-2.8%,0%,·
Cc1ccc(/C=C2/SC(=S)N(CCCC(=O)Nc3ccc(O)cc3)C2=O)cc1,?,2.3%,2%,-1
Cc1cccc(-c2cccc(NC(=O)C3CCCN(C(=O)c4ocnc4C)C3)c2)c1 (stereo not given),-3%,-0.2%,-5%,·
COc1ccc(NC(=O)N(Cc2cc3ccc(OC)cc3[nH]c2=O)CC2CCCO2)cc1 (stereo not given),17%,2.6%,-4%,0
N#C/C(C(=O)Oc1ccccc1)=C1/Nc2ccccc2-c2ccccc21,-1%,?,?,10
CCOc1ccccc1NC(=O)C(Sc1ccccc1)c1ccccc1 (stereo not given),-4%,-2.0%,-17%,-3
Cn1c2c(c(=O)n(C)c1=O)C(c1ccc(Br)cc1)C(C#N)=C(N)N2 (stereo not given),-3%,5.0%,-10%,·
O=C(/C=C/c1ccco1)N1CCN(S(=O)(=O)c2ccccc2)CC1,·,0.6%,-2%,·
CC(=O)Nc1ccc(NC(=O)CSc2nnc(NC(=O)C3CC(=O)N(c4ccccc4)C3)s2)cc1 (stereo not given),-4%,-1.2%,1%,·
O=C(CCN1C(=O)C2C3C=CC(C3)C2C1=O)Nc1nccs1 (stereo not given),0%,-1.8%,-4%,2
Cc1ccc(OCC(=O)NNC(=S)NC(=O)c2cccs2)c(C)c1,1%,-1.0%,4%,·
COC(=O)/C=c1/s/c(=C(/C#N)C(=O)N2CCCCC2)n(-c2ccccc2)c1=O,-2%,-0.7%,11%,8
CCC(=O)N1CCN(c2ccc(NC(=O)c3cccs3)cc2)CC1,-27%,-3.4%,0%,0
CCN1C(=O)Cc2cc(S(=O)(=O)N3CCOCC3)ccc21,-10%,-0.4%,6%,2
CCC1Oc2ccc(C)cc2N(CC(=O)NCCN2CCCCCC2)C1=O (stereo not given),-3%,-0.4%,-2%,-19
COc1ccc(N2CCN(c3nc4ccccc4n3CC(=O)c3ccccc3)CC2)cc1,-4%,-2.3%,-3%,-4
C/C(=N\N(C)C)c1ccc(OCCOc2ccc([N+](=O)[O-])cc2)cc1,-17%,0.9%,4%,·
O=C(COC(=O)C1CC2CCCC(C1)C2=O)NNC(=O)c1ccccc1Br (stereo not given),·,-2.8%,1%,·
O=C(CCC(=O)NC1CC1)Nc1nnc(C2CCCCC2)s1,-7%,-0.8%,21%,4
CC1(Cc2ccc3c(c2)OCO3)NC(=O)NC1=O (stereo not given),-1%,-2.9%,-4%,7
CN(C)CCNC(=O)NC(=O)c1ccc(Cl)cc1,-3%,3.2%,15%,1
CCN(c1cccc(C)c1)S(=O)(=O)c1c(C)[nH]c(=O)[nH]c1=O,-1%,1.3%,2%,1
O=c1c2cc(Cl)ccc2nc(-c2ccc([N+](=O)[O-])cc2)n1O,0%,-3.0%,-3%,5
CC12CCC(=O)N1C(C(=O)Nc1nc3c(F)cc(F)cc3s1)CS2 (stereo not given),-8%,-0.7%,15%,·
CCOc1ccc(OCCSc2nc3ccccc3c(=O)[nH]2)cc1,-12%,-2.4%,-13%,-3
Cc1ccc(S(=O)(=O)Cn2nnnc2C(C(C)C)N2CCC(O)CC2)cc1 (stereo not given),-2%,0.8%,9%,·
CC(C)COc1ccc(/C=C2/Sc3ccccc3C2=O)cc1,-3%,?,?,-15
O=C(Nc1cccnc1)c1ccc(Cl)c(S(=O)(=O)N2CCc3ccccc32)c1,?,-1.1%,4%,-10
Cc1noc(C)c1COc1ccc(C(=O)OCC(=O)Nc2ccc3ccccc3c2)cc1,-6%,-3.0%,10%,-14
N#CCCN(C(=O)COc1ccc(F)cc1Br)c1ccccc1F,-6%,2.0%,-9%,?
Cc1nnc(N/N=C/c2c(Cl)cccc2Cl)n1N,-11%,0.3%,-7%,7
COc1cccc(Nc2ncnc3c2cnn3-c2cccc(C)c2)c1,-42%,-4.3%,-13%,2
CC(C)NC(=O)N(C)C[C@H]1Oc2c(NS(=O)(=O)c3ccccc3)cccc2C(=O)N([C@H](C)CO)C[C@@H]1C,·,-0.6%,-7%,·
Cc1cccc(N(CC(=O)NCc2ccc(F)cc2)C(=O)c2ccco2)c1,11%,1.4%,2%,·
Cc1ccc(S(=O)(=O)N2CCN(c3ccc([N+](=O)[O-])c(NCCN4CCOCC4)c3)CC2)cc1,-14%,0.0%,2%,-14
Cc1ccc(-c2nn3c(C)nnc3c3ccccc23)cc1S(=O)(=O)NCCN1CCOCC1,-2%,-2.6%,0%,4
COc1ccc(NC(=O)CSc2nc(=O)n(CCN(C)C)c3c2CCCC3)cc1,·,-1.3%,12%,·
CC(=O)c1cccc(NC(=O)N(c2ccccc2)c2ccccc2)c1,2%,0.6%,1%,·
CCCCCCCC(=O)OC(CN1CCCCC1)CN1CCCC1=O (stereo not given),-4%,19%,33%,-5
Clc1ccc(Oc2ncnc3oc(-c4ccccc4)cc23)cc1,-1%,?,?,-1
O=C1/C(=C/c2cccnc2)CCc2c1[nH]c1ccccc21,15%,?,-12%,-10
COc1ccc(-n2cnc3c(N)nc(N)nc32)cc1,·,-1.1%,-1%,·
O=C(Nc1ccccc1N1CCOCC1)c1ccccc1NS(=O)(=O)c1ccc(F)c(F)c1,16%,1.5%,8%,-2
Cc1ccccc1OCC(=O)NCC(C)(C)N1CCOCC1,·,4.2%,-21%,·
COc1ccc(S(=O)(=O)N2Cc3ccccc3CC2C(=O)Nc2ccc(O)cc2)cc1OC (stereo not given),-2%,0.5%,2%,-6
C/C(=N\NC(=O)CCn1nnc2ccccc21)c1cccs1,-43%,5.5%,5%,-20
Cn1c(CNc2ccc(Cl)cc2)nc2ccccc21,-31%,8.7%,0%,-5
COc1ccc(NC(=O)c2c[nH]c(=O)n(-c3ccc(C)c(C)c3)c2=O)cc1OC,-5%,-3.3%,7%,1
Cc1ccc(NC(=S)NCc2ccc(F)cc2)cc1,·,1.9%,-6%,·
